PV pol inh = poliovirus RNA polymerase inhibition | P03300 | poliovirus polymerase elongation, fluorescence polarization; stronger effect = lower value | % elongation, % (compound at 16.7 µg/mL) | 150,000 compounds, 0.66% hits; in the data active = % elongation below about 90%; note: some results filed as inactive read as strong as hits
Target sequence (P03300 1749-2209 limits assumed): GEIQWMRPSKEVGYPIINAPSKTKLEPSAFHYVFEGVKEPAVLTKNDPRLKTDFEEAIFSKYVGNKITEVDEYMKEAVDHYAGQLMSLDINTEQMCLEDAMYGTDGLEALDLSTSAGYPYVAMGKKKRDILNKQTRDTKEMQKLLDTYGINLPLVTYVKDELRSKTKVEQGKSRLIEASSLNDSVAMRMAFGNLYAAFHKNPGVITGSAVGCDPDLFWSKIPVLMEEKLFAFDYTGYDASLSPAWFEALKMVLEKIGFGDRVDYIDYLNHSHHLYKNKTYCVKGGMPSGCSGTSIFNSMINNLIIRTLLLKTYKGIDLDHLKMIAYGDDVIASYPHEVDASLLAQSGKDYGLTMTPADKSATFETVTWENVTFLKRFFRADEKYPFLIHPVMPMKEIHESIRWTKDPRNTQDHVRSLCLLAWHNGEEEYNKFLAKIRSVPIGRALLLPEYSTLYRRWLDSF
PV pol inh intensity = second read-out of PV pol inh, no call of its own (marks repeat the call); % elongation; measured here: total intensity read-out; formula for this scale not given here;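 total fluorescence in place of polarization; lower means less elongation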
Starred values were filed as active, the others as inactive. Some of the compounds tested, so the mix of outcomes need not match the whole.

Results follow in this order: PV pol inh	PV pol inh intensity
Cc1cc(-c2ccc(C)c(S(=O)(=O)NCc3cccs3)c2)on1
 : 107	105
Cc1ccc(N2CCN(C(=O)c3cn(C)c4ccc(S(=O)(=O)N5CCCC5)cc4c3=O)CC2C)cc1 (stereo not given)
 : 101	102
COc1ccccc1NC(=O)C1=C(C)Nc2nc(SC)nn2C1c1ccccc1Cl (stereo not given)
 : 115	116
CC(=O)c1cccc(NC(=O)CCn2nc(C)c(S(=O)(=O)N3CCCCC3)c2C)c1
 : 109	95
O=C(CCCCCn1c(=O)c2sccc2n(Cc2ccccc2Cl)c1=O)NCc1ccc2c(c1)OCO2
 : 110	112
CCN(CC)C(=O)c1sc2c(c1C)c(=O)n(-c1ccc(OC)cc1OC)c(=O)n2CC(=O)Nc1ccccc1
 : 103	107
CC(NC(=O)c1cccc(Nc2nc3ccccc3n3nnnc23)c1)c1ccccc1 (stereo not given)
 : 108	99
CCc1ccc(NC(=O)C2=CC(c3ccc4c(c3)OCO4)=NS(=O)(=O)N2C)cc1
 : 114	111
O=C(NCCc1nc2ccccc2n1Cc1ccc(F)cc1)c1ccco1
 : 100	102
COc1ccc(C)cc1NC(=O)CCS(=O)(=O)c1cc2c3c(c1)CCN3C(=O)CC2
 : 110	119
O=C1CN(C(=O)c2c(F)cccc2Cl)C(c2ccc(F)cc2)c2cc(Br)ccc2N1 (stereo not given)
 : 103	105
Cc1cccc(-n2ncc(C(=O)N3CCN(c4ccc(Cl)cc4)CC3)c2C2CCN(C(=O)OC(C)(C)C)CC2)c1
 : 108	109
Cc1ccc(CNC(=O)CCCCCn2c(=O)c3sccc3n(CC(=O)Nc3ccc(C)c(F)c3)c2=O)cc1
 : 105	105
CCN(CC)c1cc(C)c2cc(NC(=O)c3cccc(OC)c3)ccc2n1
 : 106	108
Cc1ccc(Cl)cc1N1CCN(C(=O)c2ccc(CS(=O)(=O)c3ccccc3C)o2)CC1
 : 102	102
COc1ccc2c(C)c(CCC(=O)NCc3cccc(Cl)c3)c(=O)oc2c1
 : 106	111
CCN(CC)c1ccc2cc(-c3nc4sc5c(c4c(=O)[nH]3)CCC(C(C)(C)C)C5)c(=O)oc2c1 (stereo not given)
 : 94	281
COC(=O)CNC(=O)N1CCN(S(=O)(=O)c2ccc3c(ccn3C)c2)CC1
 : 103	109
CN(C)S(=O)(=O)N(CC(=O)NCCSc1ccccc1)c1ccccc1
 : 104	109
N#Cc1cccc(NC(=O)C2CCN(c3ncccn3)CC2)c1
 : 108	113
CCOC(=O)c1cnc2c(C)cc(C)cc2c1NCCc1ccc(OC)c(OC)c1
 : 100	102
COc1ccc(-c2nnc(SCC(=O)NC3CCCC3)nc2-c2ccc(OC)c(OC)c2)cc1OC
 : 106	114
N#Cc1ccccc1NC(=O)COC(=O)Cc1cccc2ccccc12
 : 101	106
CCCS(=O)(=O)N1CC(=O)N(c2ccc(C)c(Cl)c2)C(C)(C(=O)NC2CCCCCC2)C1 (stereo not given)
 : 111	107
COc1ccc(C(=O)Nc2ccc3oc(-c4cccc5c(Br)cccc45)nc3c2)cc1
 : 110	114
CC(C)(C)c1ccc(C(=O)NCC(c2cccnc2)N2CCc3ccccc3C2)cc1 (stereo not given)
 : 101	97
CCCCc1nn2c(=O)cc(COC(=O)c3cccc(NC(=O)c4cccc(Cl)c4)c3)nc2s1
 : 112	112
CC1=C(C(=O)Nc2ccccc2)C(CC(C)C)n2nc(SCc3ccccc3C)nc2N1 (stereo not given)
 : 119	118
COc1ccccc1CNS(=O)(=O)c1c(C)nc2scc(C)n2c1=O
 : 101	104
CCC1CN(C(=O)Nc2cccc3c2CCCC3)c2ccccc2O1 (stereo not given)
 : 113	103
CCOc1cc(OCC)cc(C(=O)Nc2cccc(-c3nc4ccccc4[nH]3)c2)c1
 : 104	106
CCN1CCN(c2ncc3c(n2)CCN(Cc2cc(F)cc(F)c2)C3)CC1
 : 86*	84*
Cc1cccc(N2CCN(CCCNc3ncnc4onc(-c5ccc(F)cc5)c34)CC2C)c1 (stereo not given)
 : 107	112
CCOc1ccc(C2=CC(c3cccc(Br)c3)n3c(nc4ccccc43)N2)cc1Cl (stereo not given)
 : 112	124
Cc1cccc(Nc2nc(N)nc(N)c2S(=O)(=O)c2ccccc2)c1
 : 108	112
CC(C)CN(CCNC(=O)c1cn(C)c2ccc(S(=O)(=O)N3CCCC3)cc2c1=O)CC(C)C
 : 102	100
COc1cc(-c2nnn(CC(=O)NCc3ccccc3)n2)cc(OC)c1OC
 : 108	109
COc1ccc(C)cc1NC(=O)CSc1ncc2c(n1)-c1ccc(Cl)cc1N(Cc1ccccc1)S2(=O)=O
 : 111	118
CCOc1ccc2nc(N3CCC(C(=O)Nc4cc(C)ccc4C)CC3)sc2c1
 : 109	113
CCCCN(CC)CCNC(=O)CN1C(=O)COc2ccc(S(=O)(=O)N3CCCC3)cc21
 : 105	108
COc1ccc(C(=O)c2c(N)c(C(=O)Nc3cccc(OC)c3)c3ccccn23)cc1
 : 103	109
COc1cc(C(CC(=O)Nc2ncccc2C)N2Cc3ccccc3C2=O)cc(OC)c1OC (stereo not given)
 : 112	113
Cc1ccc(C)c(NC2=C(c3ccc(C(F)(F)F)cc3)C(=O)c3ccccc32)c1
 : 104	107
CN1CCC(N(C)C(=O)c2cc3ccccc3o2)CC1
 : 99	101
Cc1ccc(-n2ccnc(NCCc3ccccc3)c2=O)cc1C
 : 104	105
Cc1ccc(OCC(=O)NCC2(N3CCOCC3)CCCCC2)cc1C
 : 100	95
COc1ccc(C2CC(=O)Nc3c2c(C)nn3-c2nc(C)cc(C)n2)c(OC)c1OC (stereo not given)
 : 105	104
CC(C)NC(=O)Cn1c(=O)nc(-c2ccccc2F)c2cc(Cl)ccc21
 : 99	106
Cc1ccc2ncc(C(=O)NC(C)c3ccccc3)c(=O)n2c1 (stereo not given)
 : 102	109
CCCNC(=O)Cn1ncc2c3ccccc3n(CCC)c2c1=O
 : 109	98
O=C(NCCCN1CCN(c2ccccc2)CC1)c1nnc(Cc2c(F)cccc2Cl)o1
 : 91	92
Cc1cccc(Oc2nc3c(C)cccn3c(=O)c2/C=C(\C#N)c2nc3ccccc3s2)c1
 : 104	174
O=C(CSc1nc2c([nH]c3ccccc32)c(=O)n1-c1ccc(Cl)cc1)N1CCc2ccccc21
 : 103	108
CCCSc1ncc(Cl)c(C(=O)Nc2sc3c(c2C(=O)NCCOC)CCCC3)n1
 : 106	92
CCCCCNC(=O)CCn1c(=O)[nH]c2ccccc2c1=O
 : 103	102
O=C(Nc1ccc(F)cc1)c1cccn1-c1nnc(N2CCCCC2)s1
 : 105	106
COc1cccc(NC(=O)Cn2c(=O)n(CCc3ccccc3)c(=O)c3c4c(sc32)CN(C(C)=O)CC4)c1
 : 106	108
COCCc1nn2c(=O)cc(COC(=O)C(c3ccccc3)c3ccccc3)nc2s1
 : 113	111
O=C1CN=C(c2ccccc2Cl)c2cc(Cl)ccc2N1Cc1cccc(Cl)c1
 : 104	103
CCC(C)NC(=O)CSc1nnc(-c2ccc(C)cc2)c(-c2ccc(C)cc2)n1 (stereo not given)
 : 105	110

Other structures.
Results follow in this order: PV pol inh	PV pol inh intensity
COc1cc2c(-c3ccccc3O)nc3c(c(C)nn3-c3ccccc3)c2cc1OC
 : 107	109
COC(=O)c1ccc(NC(=O)CCc2c(C)nc3c(c(C)nn3C(C)(C)C)c2C)cc1
 : 102	103
O=[N+]([O-])c1cc(-c2nc(-c3ccccc3)no2)ccc1N1CCCC1
 : 113	118
COc1ccccc1NC(=O)Cn1c(=O)n(-c2cccc(Cl)c2)c(=O)c2c1c1cc(C)ccc1n2C
 : 102	105
COC(=O)c1ccc(NC(=O)CC2C(=O)N(c3ccc(C)cc3)C(=O)N2Cc2ccc(OC)cc2)cc1 (stereo not given)
 : 106	114
CCOC(=O)N1CCN(Cc2nc3cc(NC(=O)c4ccccc4[N+](=O)[O-])ccc3n2C(C)C)CC1
 : 99	91
COc1nnc(-c2ccc(N3CCCCC3)c(NC(=O)c3ccccc3)c2)c2ccccc12
 : 106	112
COc1cc(C)ccc1OCCSc1nc2ccc(NC(=O)c3cccs3)cc2s1
 : 112	110
Cc1cc(C)cc(N2C(=O)CS(=O)(=O)C23C(=O)N(C)c2ccccc23)c1 (stereo not given)
 : 108	114
COc1ccc(C2CC(=O)c3cc(-c4nc(-c5ccc(C)cc5)cs4)c(=O)[nH]c3C2)cc1 (stereo not given)
 : 120	130
CCCCCCOc1ccc(C2C(=O)N(C3CCCCC3)CC(=O)N2CCCC)cc1 (stereo not given)
 : 108	115
COc1cc(NC(=O)Cn2c(SCc3ccc(F)cc3)nc3cccnc32)cc(OC)c1
 : 110	100
Cc1cc2c(n1-c1ccc(C(=O)NCC(C)c3ccccc3)cc1)CCCC2 (stereo not given)
 : 108	106
COc1ccc(N2CC(NC(=O)COc3ccccc3C)CC2=O)cc1OC (stereo not given)
 : 105	96
CCOCCc1nn2c(=O)cc(COC(=O)CNC(=O)c3ccc(C(C)(C)C)cc3)nc2s1
 : 101	97
CCOC(=O)c1cnc2c(C)c(Cl)ccc2c1NCCc1ccccc1
 : 102	102
COc1ccccc1CNC(=O)C1CCCN(C(=O)c2cnn(-c3ccc(F)cc3)c2-n2cccc2)C1 (stereo not given)
 : 111	106
Cc1ccc(-c2c(C)n3c4c(=O)n(C)c(=O)n(C)c4nc3n2CCO)cc1
 : 102	105
CC(=O)c1ccc(N2CCN(c3ncnc4c3cnn4C)CC2)cc1
 : 104	110
Cc1ccc(CNC(=O)CSC2=Nc3ccccc3N=C(c3ccc(F)cc3)C2)cc1
 : 104	106
N#C/C(=C\c1ccc(-c2cc(Cl)ccc2Cl)o1)C(=O)Nc1ccccc1C(=O)O
 : 107	116
CCOc1ccc(N(CC)C(=O)c2cc3c(s2)-c2ccccc2OC3)cc1
 : 102	102
CCn1nc(C)c(CCN(C)C(=O)Nc2cc(Cl)c(OC)cc2OC)c1C
 : 110	110
O=C(COCc1cc(-c2cccs2)on1)Nc1cccc(O)c1
 : 103	108
CC(C)OCCCNC(=O)c1ccc2c(c1)N(Cc1c(F)cccc1Cl)C(=O)c1ccccc1S2
 : 113	114
CC(C)NC(=O)C1CCN(C(=O)N2CCOc3ccc(Cl)cc32)CC1
 : 107	106
CCN(CC)CCNC(=O)c1ccc(-n2c(-c3ccccc3)cc3c2CCCC3)cc1
 : 101	99
COc1ccc(-c2nc(SCC(=O)Nc3ccc4c(c3)OCCO4)c(-c3ccc(C)cc3)[nH]2)cc1OC
 : 112	111
Cc1cccc(C(=O)NCC(=O)OCc2cc(=O)n3nc(C4CC4)sc3n2)c1
 : 109	112
O=C(CN1C(=O)COc2ccc(S(=O)(=O)N3CCCCCC3)cc21)NCc1ccc(F)cc1
 : 123	124

An excerpt of the results above:
Results follow in this order: PV pol inh	PV pol inh intensity
COc1ccccc1CNC(=O)C1CCCN(C(=O)c2cnn(-c3ccc(F)cc3)c2-n2cccc2)C1 (stereo not given)
 : 111	106
Cc1ccc(-c2c(C)n3c4c(=O)n(C)c(=O)n(C)c4nc3n2CCO)cc1
 : 102	105

(more compounds)
Results follow in this order: PV pol inh	PV pol inh intensity
COc1ccc(-n2ccnc(NCCc3ccccc3)c2=O)cc1OC
 : 106	111
CCOC(=O)c1cccc(NC(=O)CCS(=O)(=O)c2ccc3c(c2)CC(=O)N3C)c1
 : 108	100
CC1(c2ccc(Cl)cc2)CC(C)(C)N(C(=O)c2ccccc2)c2ccccc21 (stereo not given)
 : 107	108
COc1ccc(CNC(=O)CSc2nc3ccccc3nc2Cc2ccccc2OC)cc1
 : 108	110
Cc1oc2c(c1C(=O)Nc1ccccc1Br)C1=NCCN1C=N2
 : 105	107
CCOc1ccc(/C=C/c2nc(C#N)c(N3CCN(c4ccc(OC)cc4)CC3)o2)cc1
 : 107	104
Cc1cc(C)cc(NC(=O)CSc2oc(-c3ccco3)nc2S(=O)(=O)c2ccccc2)c1
 : 109	113
O=C(NCCc1ccccc1)c1c2c(nc3ccccc13)C(=O)N(C1CCCCC1)C2
 : 108	116
Cc1oc2ncn(CC(C)C)c(=O)c2c1C(=O)NCCCN1CCC(C)CC1
 : 102	100
CCOC(=O)COc1ccc(-c2nnn(CC(=O)Nc3ccccc3)n2)cc1
 : 108	112
Cc1cccc(CSc2ccc3nnc(CCNS(=O)(=O)c4ccccc4)n3n2)c1
 : 104	112

Compounds listed so far with fluorine, in the order listed:
Results follow in this order: PV pol inh	PV pol inh intensity
O=C(NCCc1nc2ccccc2n1Cc1ccc(F)cc1)c1ccco1
 : 100	102
O=C1CN(C(=O)c2c(F)cccc2Cl)C(c2ccc(F)cc2)c2cc(Br)ccc2N1 (stereo not given)
 : 103	105
Cc1ccc(CNC(=O)CCCCCn2c(=O)c3sccc3n(CC(=O)Nc3ccc(C)c(F)c3)c2=O)cc1
 : 105	105
CCN1CCN(c2ncc3c(n2)CCN(Cc2cc(F)cc(F)c2)C3)CC1
 : 86*	84*
Cc1cccc(N2CCN(CCCNc3ncnc4onc(-c5ccc(F)cc5)c34)CC2C)c1 (stereo not given)
 : 107	112
Cc1ccc(C)c(NC2=C(c3ccc(C(F)(F)F)cc3)C(=O)c3ccccc32)c1
 : 104	107
CC(C)NC(=O)Cn1c(=O)nc(-c2ccccc2F)c2cc(Cl)ccc21
 : 99	106
O=C(NCCCN1CCN(c2ccccc2)CC1)c1nnc(Cc2c(F)cccc2Cl)o1
 : 91	92
O=C(Nc1ccc(F)cc1)c1cccn1-c1nnc(N2CCCCC2)s1
 : 105	106
COc1cc(NC(=O)Cn2c(SCc3ccc(F)cc3)nc3cccnc32)cc(OC)c1
 : 110	100
COc1ccccc1CNC(=O)C1CCCN(C(=O)c2cnn(-c3ccc(F)cc3)c2-n2cccc2)C1 (stereo not given)
 : 111	106
Cc1ccc(CNC(=O)CSC2=Nc3ccccc3N=C(c3ccc(F)cc3)C2)cc1
 : 104	106
CC(C)OCCCNC(=O)c1ccc2c(c1)N(Cc1c(F)cccc1Cl)C(=O)c1ccccc1S2
 : 113	114
O=C(CN1C(=O)COc2ccc(S(=O)(=O)N3CCCCCC3)cc21)NCc1ccc(F)cc1
 : 123	124

Screening results: PubChem, ICCB-Longwood Screening Facility, Harvard Medical School
